# StopGo FLuc: lowers the firefly signal of an FMDV 2A StopGo reporter. HEK cells with a luciferase reporter of 2A StopGo recoding. Potency, µM (titrated, usually from 57.5 µM), for the others: top-dose signal change, negative = less light. 120,000 tested, 0.23% active. AID 1745856; active = well fitted falling curve with a large enough effect; inconclusive = small, poorly fitted or top-dose-only effect; inactive = no such curve, though single readings can be large or run the other way; also: nearly all actives have a fitted effect of over 60% in size; overnight with compound
# 2A Renilla: FMDV 2A StopGo reporter, Renilla signal; HEK cells with a luciferase reporter of 2A StopGo recoding; Potency, µM (doses to about 57.5 µM), for inactives: at the highest dose signal change, negative = less light; 120,000 tested, 0.32% active; AID 1745857; active means well fitted falling curve with a large enough effect; inconclusive means small, poorly fitted or top-dose-only effect; inactive means no such curve, though single readings can be large or run the other way; also: nearly all actives have a fitted effect of over 55% in size; overnight with compound
# The depositor's hits bear a star; ? = inconclusive; & = joins results of further samples; [ ] = remark or other dose. % is scaled to controls: 0 for no effect and ±100 for the full control effect; potency is read from the fitted curve at half-maximal effect. A portion of the library; count on the stated rates, not on these rows.
SMILES,StopGo FLuc,2A Renilla
Nc1c(Cl)c(Cl)c(Cl)c(Cl)c1Cl,-10%[22.9 µM],-5%[114 µM]
CC(Sc1oc(-c2ccco2)nc1S(=O)(=O)c1ccc(Br)cc1)c1ccccc1 (stereo not given),-13%,-4%
CCCCn1c(N)c(N(CCC)C(=O)Cn2c(CSC)nc3ccccc32)c(=O)[nH]c1=O,-1%,-10%
CCOP(=O)(OCC)c1nc(-c2ccc([N+](=O)[O-])cc2)oc1NCc1ccc(F)cc1,-1%,71%[activator]
COc1ccccc1NC(=O)N1CC(=O)Nc2sc3c(c2C1c1ccccc1)CCCC3 (stereo not given),0%,-16%
OC(CN1CCC(Cc2ccc(F)cc2)CC1)c1ccc(Cl)cc1 (stereo not given),-13%[11.5 µM],-7%
CCc1ccc(CNC(=O)CN2C(=O)c3cccnc3Oc3ccc(Cl)cc32)cc1,-7%,10%
CCOc1ccccc1NC(=O)c1c(NCc2ccc(C)o2)sc2c1CCC(C)C2 (stereo not given),4%,-15%
CCn1cnc2c1c(=O)n(CC(=O)NC(=O)NCc1ccccc1)c(=O)n2Cc1ccccc1,5%,12%
CCN1CCN(CCCNC(=O)c2cc3c(=O)n(CC)c4ccccc4c3s2)CC1,17%,16%
COc1ccc2c(C)c(CC(=O)NCc3ccc(F)cc3)c(=O)oc2c1,6%,9%
CCCNc1c(NC(=O)c2ccccc2C)c(=O)oc2ccccc12,13%,7%
Brc1ccccc1-c1nnc(SCc2nc3ccccc3o2)o1,82%[activator],13%
O=C(NCc1coc(-c2cccs2)n1)c1cc(Cl)cc(Cl)c1,10%,18%
CCOc1ccc(NC(=O)Cn2cc(C(=O)c3ccc(CC)cc3)c(=O)c3cc4c(cc32)OCO4)cc1,-19%,-16%
CC(C)N1CCc2c(C#N)c(NCc3ccco3)n3cnnc3c2C1,-9%,-11%
CCc1ccc(-c2noc(CCC(=O)Nc3ccccc3N3CCOCC3)n2)cc1,20%,36%[activator]
Cc1nc(-c2ccc(NC(=O)c3ccc(Br)o3)c(C)c2)no1,114%[activator],-9%
Cc1ccc(S(=O)(=O)c2nc(-c3ccco3)oc2N(C)C)cc1,15%,61%[activator]
CCOC(=O)c1cnc2c(C)cccc2c1Nc1ccccc1OCC,16%,?
CN(Cc1ccccc1)Cc1cc(=O)n2cc(Br)ccc2n1,116%[activator],4%
COc1cccc(-c2cc(C(=O)Nc3ccc(Br)c(C)c3)[nH]n2)c1,2%,-6%
CCCCN(CC)CC(=O)Nc1cccc2ncccc12,9%,2%
COc1cc(C=O)cc(Br)c1OC(=O)c1ccc(C)cc1,22%,1%
COc1ccc2c(c1)CC/C(=C\c1ccc(Br)cc1)C2=O,0%,23%
CC1C(c2ccc(Cl)cc2)=[N+]([O-])C(C)(c2ccccc2)N1O (stereo not given),-6%,18%
O=C(O)C1(c2cccc(Br)c2)CCC1,27%,21%
Cc1ccc(-n2nnc(C(=O)NC(C)C)c2C)cc1Cl,160%[activator],19%
O=C(COCC(=O)N1CCN(c2ccccc2)CC1)NCc1ccccc1,-20%,-17%
CCOC(=O)c1c(-c2ccccc2)csc1NC(=O)c1cc(=O)c2ccc(C)cc2o1,-6%,-11%
O=S(Cc1ccc(Cl)cc1)Cc1ccc(F)cc1Cl (stereo not given),-6%,33%[activator]
Cc1cccc(C(=O)Nc2ccc(N3CCN(c4ccc(F)cc4)CC3)c(C(=O)O)c2)c1,6%,-9%
CCc1ccc(C2CC(=O)NC3=C2C(=O)CCC3)cc1 (stereo not given),21%,19%
COc1ccc(Cl)cc1NC(=O)c1ccc(F)c(S(=O)(=O)N2CCCC2)c1,17%,30%
Cc1ccc(NC(=O)CSCc2nc(-c3ccccc3)oc2C)cc1,-2%,-21%
COc1ccc(NC2=NS(=O)(=O)C(c3ccccc3)=C2C)cc1Cl,-5%,-5%
CC/C=C(/C)C(=O)NCC(c1ccsc1)N(C)C (stereo not given),-6%,-15%
CCc1nc(Nc2ccc(F)c(Cl)c2)c2c3c(sc2n1)CCCC3,-2%,-6%
CC1CCc2c(sc3ncnc(SCC(=O)Nc4ccc5c(c4)OCCO5)c23)C1 (stereo not given),-4%,-11%
Oc1ccc(C2N(O)C3CCCCC3N2O)cc1 (stereo not given),12%,7%

# Brought forward from above: 4 entries; new compounds follow.
SMILES,StopGo FLuc,2A Renilla
CC/C=C(/C)C(=O)NCC(c1ccsc1)N(C)C (stereo not given),-6%,-15%
CCc1nc(Nc2ccc(F)c(Cl)c2)c2c3c(sc2n1)CCCC3,-2%,-6%
CC1CCc2c(sc3ncnc(SCC(=O)Nc4ccc5c(c4)OCCO5)c23)C1 (stereo not given),-4%,-11%
Oc1ccc(C2N(O)C3CCCCC3N2O)cc1 (stereo not given),12%,7%
O=c1oc2ccc3ccccc3c2cc1-c1nnc(Nc2ccc(F)cc2)s1,-17%,-15%
C#CCOc1ccc(/C=C(/C#N)c2ccc(F)cc2)cc1OC,15%,10%
COC(=O)c1ccc(C2C3=C(CC(C)(C)CC3=O)Nc3cc4c(cc32)OCO4)cc1 (stereo not given),-12%,36%[activator]
CCN(CC)CCCNC(=O)Cn1c(-c2cccs2)cc2cc(Cl)ccc21,8%,14%
CCOC(=O)c1ccc(NC(=O)CCc2c(C)nc3c(c(C)nn3C)c2C)cc1,-10%,-14%
CSc1ccc(CNC(=O)CCn2c(=O)c3cccn3c3ccc(F)cc32)cc1,-10%,-16%
Cc1ccc(CNC(=O)c2ccc(-n3c(C)cc4c3CCCC4)cc2)cc1,0%,-6%
O=C(O)C(c1c[nH]c2ccc(Br)cc12)N1CCN(Cc2cccs2)CC1 (stereo not given),-11%,-10%
COc1cc(C(=O)Nc2sc3c(c2C#N)CCCC3)c(Br)c(OC)c1OC,55%[activator],52%[activator]
COC(=O)[C@H](C)NC(=O)C12CC3CC(CC(C3)C1)C2,-3%,4%
C=CCC1(O)CC(C)(C)NC(C)(C)C1,-7%,-3%
CC(=O)N1CCc2cc(NC(C)C(=O)Nc3ccc(SC(F)F)cc3)ccc21 (stereo not given),52%[activator],13%
COc1ccc(NC(=O)COC(=O)c2cccnc2Nc2cccc(C(F)(F)F)c2)cc1OC,14%,5%
CC(=O)c1ccc(NC(=O)C2CCN(S(=O)(=O)c3ccc4[nH]c5c(c4c3)CCCCC5)CC2)cc1,-11%,4%
O=C(NC1(C(F)(F)F)C(=O)Nc2c1c(=O)[nH]c(=O)n2Cc1ccco1)c1cccnc1 (stereo not given),-17%,-2%
CCC(Sc1nc2n[nH]c(C)c2c(=N)n1-c1ccccc1Cl)C(=O)N(CC)CC (stereo not given),-8%,15%
Cc1cc(C)cc(NC(=O)CCCn2nc(C)c3c(C)n(-c4ccccc4)nc3c2=O)c1,4%,-8%
C=CCOc1cccc(/C=N/NC(=O)C(C)O)c1 (stereo not given),137%[activator],3%
CC1Cc2ccccc2N1C(=O)c1cccc(NS(=O)(=O)c2ccc3c(c2)OCCO3)c1 (stereo not given),?,25%
COc1ccc(-c2nc3c4ccccc4n(CC(=O)Nc4ccc(C(C)=O)cc4)c(=O)n3n2)cc1,1%,-13%
COc1ccc(N2CC(NC(=O)COc3cccc(C)c3)CC2=O)cc1OC (stereo not given),9%,-4%
c1csc(CNCC2CCNCC2)c1,-10%,-3%
CCN(CC)C(=O)C(Sc1nncn1-c1ccccc1F)c1ccccc1 (stereo not given),120%[activator],34%[activator]
CCCn1ccc2c(OCC(=O)Nc3ccccc3C(=O)OCC)cccc2c1=O,-16%,8%
Cc1ccc(C(=O)/C=C/c2cc(Br)ccc2F)o1,70%[activator],12%
Cn1c(SCC(=O)NC2CCCCCC2)nnc1-c1ccc(Cl)cc1,-12%,3%
Cc1cc(C)cc(NC(=O)Cn2ccn(-c3ccc(F)c(F)c3)c(=O)c2=O)c1,-20%,-19%
COc1ccc(CC(=O)OCC(=O)Nc2ccccc2OC(F)F)cc1OC,32%,11%
COc1ccc(-c2cc(-c3ccccc3)nc(SCC(=O)CC(=O)OC(C)C)c2C#N)cc1,-24%,15%
Cc1ccc(C)c(C(=O)c2sc(Nc3ccc(F)cc3)nc2N)c1,42%[activator],20%
CCCOc1ccc(Nc2nc(SC)ncc2C(=O)OCC)cc1,-6%,20%
CC(NC(=O)c1sc2ncccc2c1-n1cccc1)c1ccccc1 (stereo not given),-12%,74%[activator]
O=C1CC(c2nc(-c3ccc(Oc4ccccc4)cc3)no2)CN1c1ccccc1 (stereo not given),20%,3%
Cc1ccc(-c2cnc(SCC(=O)Nc3cc(F)ccc3C)o2)cc1C,-1%,-11%
Cc1ccc(C)c(N2CCN(C(=O)CN3CCSc4ccccc43)CC2)c1,10%,-2%
Cc1ccc(C(=O)Nc2ccc(Br)cc2)cc1S(=O)(=O)N1CCOCC1,-71%,?
CCCCCCCOC(=O)c1c(C)oc2c1cc(NS(=O)(=O)c1cccs1)c1ccccc12,10%,6%
CCc1ccc(CN(C)C(C)C(=O)NCc2cccs2)cc1 (stereo not given),-8%,-9%
CCCCOC(=O)c1cccc(NC(=O)/C=C/c2ccccc2Cl)c1,?,?
COc1ccccc1NC(=O)CSc1nc(O)c(C/C=C/c2ccccc2)c(=O)[nH]1,15%,-20%

# A different layout for part of the listing above.
# Every second line gives: StopGo FLuc | 2A Renilla
- COc1ccc(CC(=O)OCC(=O)Nc2ccccc2OC(F)F)cc1OC
→ 32% | 11%
- O=C1CC(c2nc(-c3ccc(Oc4ccccc4)cc3)no2)CN1c1ccccc1 (stereo not given)
→ 20% | 3%
- CCCCOC(=O)c1cccc(NC(=O)/C=C/c2ccccc2Cl)c1
→ ? | ?

# (cont.)
SMILES,StopGo FLuc,2A Renilla
COc1ccc2c(c1)c(CC(=O)Nc1cccc(F)c1C)c(C)n2C(=O)c1ccc(Cl)cc1,9%,-1%
CCc1ccc(C(=O)c2cn(CC(=O)Nc3cccc(OC)c3)c3cc4c(cc3c2=O)OCO4)cc1,-20%,-15%
COc1cc(Cl)c(NC(=O)c2cc(S(=O)(=O)N3CCCCC3)c[nH]2)c(OC)c1,-21%&74%,27%&75%
CCc1nn2c(=O)cc(COC(=O)COc3ccc(OC)cc3)nc2s1,-9%,-6%
CCn1c(=O)n(-c2ccc(F)cc2)c(=O)c2sc3ccccc3c21,-3%,-20%
O=C(O)COc1ccccc1C1Nc2ccccc2-c2nnc(SCc3ccc(Cl)cc3)nc2O1 (stereo not given),-7%,-5%
CC(=O)N1CCC(N(Cc2ccco2)C(=O)Nc2ccc(C)c(Cl)c2)CC1,17%,17%
COC(=O)c1ccccc1NC(=O)c1oc2ccc3c(c2c1C)C(=O)CC(C)(C)O3,8%,-9%
O=C(c1cccc(Br)c1)N(Cc1ccc2[nH]ccc2c1)C1CC1,0%,95%[activator]
CC(C)C(=O)NC(Nc1cccc(Cl)c1Cl)C(Cl)(Cl)Cl (stereo not given),4%,-5%
N#C[C@H]1C[C@H]2C[C@@H]2N1C(=O)[C@@H](N)C12CC3CC(CC(O)(C3)C1)C2,-13%[11.5 µM],-7%
COc1ccc(S(=O)(=O)c2cc3cc(C(C)(C)C)cc(O)c3oc2=O)cc1,3%,?
CC1c2ccsc2CCN1C(=O)c1nn(C)c(=O)c2ccccc12 (stereo not given),-2%,-2%
COc1ccc(-c2c(C)c3ccc(O)cc3oc2=O)cc1,53%[activator],85%[activator]
Cc1ccccc1C(=O)NNC(=S)Nc1ccccc1,247%[activator],215%[activator]
O=C(C1=C(O)C(=O)N(CCc2ccccc2)C1c1ccco1)c1ccco1 (stereo not given),48%[activator],35%[activator]
Cc1cccc(CNC(=O)Cc2ccc(NC(=O)N3CCCCc4ccccc43)cc2)c1,0%,24%
COc1cccc(NC(=O)Cn2c(=O)n(Cc3ccc(C(=O)NCc4ccc5c(c4)OCO5)cc3)c(=O)c3ccccc32)c1,-6%,1%
Cc1cccc(N2CCN(Cc3nnc(-c4ccc5c(c4)OCO5)o3)CC2)c1C,1%,-10%
O=C(CN(c1ccccc1F)S(=O)(=O)c1ccccc1)Nc1ccccc1,-1%,62%[activator]

# A stretch taken from the entries so far:
SMILES,StopGo FLuc,2A Renilla
COc1ccc2c(c1)c(CC(=O)Nc1cccc(F)c1C)c(C)n2C(=O)c1ccc(Cl)cc1,9%,-1%
CCc1ccc(C(=O)c2cn(CC(=O)Nc3cccc(OC)c3)c3cc4c(cc3c2=O)OCO4)cc1,-20%,-15%
COc1cc(Cl)c(NC(=O)c2cc(S(=O)(=O)N3CCCCC3)c[nH]2)c(OC)c1,-21%&74%,27%&75%

# Full records from above:
# Record of CC1c2ccsc2CCN1C(=O)c1nn(C)c(=O)c2ccccc12 (stereo not given) = StopGo FLuc = -2%; 2A Renilla = -2%
# Record of Cc1cccc(CNC(=O)Cc2ccc(NC(=O)N3CCCCc4ccccc43)cc2)c1 = StopGo FLuc = 0%; 2A Renilla = 24%

# (listing goes on)
SMILES,StopGo FLuc,2A Renilla
CCOC(=O)CCCN1CCC(CO)CC1,-13%,-8%
Oc1ccc(Cl)cc1C=NCc1ccccc1C(F)(F)F,4%,2%
Cc1ccc(-c2nc3ccc(Cl)cn3c2Nc2ccccc2C)s1,72%[activator],-1%
CCc1ccc(-c2nn(CC(=O)NC3CCCCC3)c3c2cnc2ccc(F)cc23)cc1,46%[activator],-19%
c1cncc(-c2nc(Sc3nnnn3C3CC3)c3ccccc3n2)c1,?,?
Cc1ccc(-c2csc(Nc3ccc(C(=O)O)c(O)c3)n2)cc1,84%[activator],-11%
Cc1ccc(CNC(=O)CCc2c(C)nc3c(-c4ccc(F)cc4)c(C)nn3c2C)cc1,-5%,-13%
O=C(Nc1ccc(OC(F)(F)F)cc1)c1nc2ccccc2nc1N1CCOCC1,4%,6%
CCOC(=O)C1=C(CN2CCN(C(=O)OCC)CC2)NC(=O)NC1c1ccc(OC)c(COC)c1 (stereo not given),21%,4%
COCCNc1nc(-c2ccc(N3CCCC3=O)cc2)cs1,134%[activator],74%[activator]
